Screening results deposited in PubChem by National Center for Advancing Translational Sciences (NCATS).
Cruzain inh Det – blocks cruzain activity in presence of Triton detergent. P25779. purified cruzain, Z-FR-AMC fluorescence, 0.01% Triton. Potency, µM, inactives show max response, negative = inhibition, hits mostly inhibitors. hit rate 0.43% among 200,000; active = well fitted curve in the direction sought with a large enough effect; inconclusive = small, poorly fitted or top-dose-only effect, or another doubt; inactive = no such curve, though single readings can be large; an effect the other way counts as inactive or inconclusive;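 also: plate controls were neutral wells for no effect and buffer without enzyme for full effect; nearly all actives have a fitted effect of over 40% in size; top concentration of the series not given in the record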
Target sequence (P25779 123-467 limits assumed): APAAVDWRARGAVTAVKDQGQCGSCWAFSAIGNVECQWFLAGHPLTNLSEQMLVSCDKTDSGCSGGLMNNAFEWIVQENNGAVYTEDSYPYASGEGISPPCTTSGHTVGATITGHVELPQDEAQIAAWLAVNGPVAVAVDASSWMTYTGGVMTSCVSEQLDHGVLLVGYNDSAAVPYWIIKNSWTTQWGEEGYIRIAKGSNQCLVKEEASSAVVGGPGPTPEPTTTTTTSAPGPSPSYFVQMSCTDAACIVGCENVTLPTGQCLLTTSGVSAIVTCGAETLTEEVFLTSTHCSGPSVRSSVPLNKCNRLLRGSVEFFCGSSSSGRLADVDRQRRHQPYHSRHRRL
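Cruzain (1.5 nM) preincubated 15 min at RT with compound in 100 mM sodium acetate pH 5.5, 5 mM DTT, 0.01% Triton X-100. Reaction started with 2 uM Z-FR-AMC; AMC fluorescence (ex 360/em 450 nm) change over 60 s gave rate.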
RE007 growth inh – less growth of the S. pombe RE007 Vpr strain | hit rate 0.21% among 360,000 | Potency, µM (top dose mostly 92.2 µM), without a hit: top-dose activity change, negative = less growth | S. pombe RE007 Vpr strain, BacTiter-Glo ATP luminescence, 24 h; control for the full effect not named in the record; active = well fitted falling curve with a large enough effect; inconclusive = small, poorly fitted or top-dose-only effect; inactive = no such curve, though single readings can be large or run the other way;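 also: % is scaled to controls: 0 for no effect and ±100 for the full control effect; nearly all actives have a fitted effect of over 50% in size; the assay follows cell death caused by Vpr and the record does not say whether a fall means rescue or toxicity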
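Fission yeast RE007 carrying one integrated HIV-1 vpr copy, seeded at OD 0.01 in PMG+AL medium with 23 nL pinned compound. Grown 24 h at 30 degrees; viability read by BacTiter-Glo luminescence after 5 min.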
SARS PLpro yeast – inhibitors of SARS-CoV papain-like protease in yeast; S. cerevisiae expressing SARS-CoV PLpro, growth rescue; control for the full effect not named in the record; Potency, µM (highest dose often 32.9 µM), without a hit: top-dose activity, positive = growth rescue; hit rate 0.19% among 330,000; also: 0% is about no effect; nearly all actives have a fitted effect of over 55% in size; growth read by luminescence after 48 h
NS1 function inh – influenza NS1 inhibition. S. cerevisiae slowed by influenza A NS1, growth recovery by OD600. Potency, µM (series often up to 46.1 µM), inactives show top-dose activity, positive = more growth. hit rate 0.4% among 270,000; also: actives are rising curves; nearly all actives have a fitted effect of over 50% in size
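OD600 was taken as the measure of yeast growth restored by compound in an NS1-expressing S. cerevisiae strain. Cells had been washed out of glucose medium and diluted 1:100 into galactose -URA medium, pH 6.0.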
Cruzain noTriton – inhibitors of Trypanosoma cruzi cruzain without detergent. purified cruzain, Z-FR-AMC fluorescence, no detergent. P25779. Potency, µM, without a hit: max response, negative = inhibition, usual class: inhibitors. hit rate 2.3% among 200,000. AID 1476; active = well fitted curve in the direction sought with a large enough effect; inconclusive = small, poorly fitted or top-dose-only effect, or another doubt; inactive = no such curve, though single readings can be large; an effect the other way counts as inactive or inconclusive;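 also: plate controls were enzyme without inhibitor for no effect and buffer without enzyme for full effect; nearly all actives have a fitted effect of over 40% in size; top concentration of the series not given in the record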
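Purified cruzain at 1.5 nM, pre-incubated 15 min with compound at room temperature in 100 mM sodium acetate pH 5.5, 5 mM DTT, 0.00005% Triton X-100. Reaction started with 2 uM Z-FR-AMC; AMC fluorescence increase over 60 s gives rate.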
2A StopGo – FMDV 2A StopGo reporter, luciferase signal. hit rate 1.2% among 410,000. AID 1159524. human cells with a luciferase reporter of 2A StopGo recoding; control for the full effect not named in the record. Potency, µM (top dose mostly 57.9 µM), inactives show at the highest dose signal change, negative = less light; active = well fitted falling curve with a large enough effect; inconclusive = small, poorly fitted or top-dose-only effect; inactive = no such curve, though single readings can be large or run the other way; tested in HEK293T cells; also: % is scaled to controls: 0 for no effect and ±100 for the full control effect; nearly all actives have a fitted effect of over 45% in size; luciferase light after 4 h
LASV entry inh – blocks Lassa virus binding to or entry into cells | Lassa virus pseudotype entry inhibition, cell reporter; control for the full effect not named in the record | Potency, µM (highest dose often 37.9 µM), inactives show at the top dose activity change, negative = inhibition, usual class: inhibitors | hit rate 1.2% among 300,000; active means well fitted inhibition curve with a large enough effect; inconclusive means small, poorly fitted or top-dose-only effect, or effect the other way; inactive means flat fitted curve, though single readings scatter; tested in HEK293 cells; also: % is scaled to controls: 0 for no effect and ±100 for the full control effect; nearly all actives have a fitted effect of over 50% in size; luciferase read-out
Marburg entry inh – blocks Marburg virus binding to or entry into cells | Marburg virus pseudotyped entry inhibition, cell reporter; control for the full effect not named in the record; about a third of the inactives were read at about 46 µM | Potency, µM (titrated, usually from 37.8 µM), for inactives: at the highest dose activity change, negative = inhibition, actives largely listed as inhibitors | hit rate 1.8% among 300,000; active = well fitted inhibition curve with a large enough effect; inconclusive = small, poorly fitted or top-dose-only effect, or effect the other way; inactive = flat fitted curve, though single readings scatter; tested in HEK293 cells; about a fifth of its hits are not listed in these tables; also: % is scaled to controls: 0 for no effect and ±100 for the full control effect; luciferase read-out
The depositor's hits bear a star; ? = inconclusive; / = not tested or not shown; & = joins results of further samples; [ ] = remark or other dose. Unless noted, calls follow the shape of the dose curve; as a rule, active means well fitted rising curve with a large enough effect; inconclusive means small, poorly fitted or top-dose-only effect; inactive means no such curve, though single readings can be large or run the other way. Potency is read from the fitted curve at half-maximal effect.

item	Compound	LASV entry inh	NS1 function inh	RE007 growth inh	SARS PLpro yeast	Marburg entry inh	Cruzain inh Det	2A StopGo	Cruzain noTriton
1	Cc1cccc(NC(=S)N2CCC(NC(=O)c3ccco3)CC2)c1	2%	-6%	-8%	3%	18%[46.1 µM]	/	3%	/
2	Clc1ccc(C2CC(c3cccs3)n3ncnc3N2)cc1Cl (stereo not drawn)	/	-48%	-5%	-10%	/	-11%	-9%	2%
3	CSc1cccc(NC(=O)C2CCCN(S(=O)(=O)c3cnc[nH]3)C2)c1 (stereo not drawn)	/	-2%	4%	1%	/	2.1%	-7%	8%
4	N#C/C(=C/c1ccccc1Cl)c1nc(-c2cc3ccccc3oc2=O)cs1	3%[46.1 µM]	/	/	/	/	-1.3%	-11%	-6%
5	COc1cccc(OC)c1C(=O)NC(=S)NNC(=O)[C@H]1C[C@@H]1c1ccccc1	/	11%	-1%	1%	/	/	-5%	/
6	COc1cccc(NC(=O)CCN2C(=O)c3ccccc3S2(=O)=O)c1	15%	-6%	-6%	1%	26%	10%	10%	8%
7	CC(C)(C)C1CCC(=O)N(CCC#N)CC1 (stereo not drawn)	/	-8%	8%	7%	/	/	-8%	/
8	CCC(C)NCCOCCSc1ccc(Cl)cc1 (stereo not drawn)	-19%	-5%	-5%	1%	?	5.2%	19%	-3%
9	Cn1nc(C(=O)OCc2ccccc2F)c2ccccc2c1=O	/	/	-2%	-2%	10%[46.1 µM]	/	-25%	/
10	Cn1nc(C(=O)Nc2cccc(S(N)(=O)=O)c2)c2ccccc2c1=O	5%	-1%	2%	0%	-2%[46.1 µM]	/	-14%	/
11	NNC(=O)CNC(c1ccccc1)c1cc(Br)ccc1NC(=O)c1ccc(Br)cc1 (stereo not drawn)	?	7.1µM*	5%	-18%	2%	-9.0%	-22%	-19%
12	CCCn1nnc(NC(=O)/C=C/c2ccco2)n1	17%	-2%	-1%	-1%	0%[46.1 µM]	/	0%	/
13	CC(=O)Nc1cc(-c2nc3cc(Cl)ccc3o2)ccc1C	22%[46.1 µM]	/	/	/	-10%[46.1 µM]	-0.7%	61%[activator]	-3%
14	COc1ccc(C2=NN(C(=O)CCC(=O)O)C(c3ccc(OC)cc3)C2)cc1 (stereo not drawn)	14%[46.1 µM]	13%	7%	4%	6%[46.1 µM]	/	-2%	/
15	Cc1ccc(Cc2cnc(NC(=O)/C(C#N)=C/c3ccc(-c4cccc([N+](=O)[O-])c4)o3)s2)cc1	?	14%	15%	-3%	1%[46.1 µM]	0.8%	-6%	3.2µM*
16	Cc1ccccc1CS(=O)(=O)CCC(=O)NCCN1CCN(c2cccc(Cl)c2)CC1	2%	-9%	10%	-11%	-1%&-16%	-0.8%	?	-7%

From entry 9 up to 10, copied from above:
item	Compound	LASV entry inh	NS1 function inh	RE007 growth inh	SARS PLpro yeast	Marburg entry inh	Cruzain inh Det	2A StopGo	Cruzain noTriton
9	Cn1nc(C(=O)OCc2ccccc2F)c2ccccc2c1=O	/	/	-2%	-2%	10%[46.1 µM]	/	-25%	/
10	Cn1nc(C(=O)Nc2cccc(S(N)(=O)=O)c2)c2ccccc2c1=O	5%	-1%	2%	0%	-2%[46.1 µM]	/	-14%	/

Complete entries, quoted from the list:
Cn1nc(C(=O)OCc2ccccc2F)c2ccccc2c1=O across the screens: LASV entry inh = /; NS1 function inh = /; RE007 growth inh = -2%; SARS PLpro yeast = -2%; Marburg entry inh = 10%[46.1 µM]; Cruzain inh Det = /; 2A StopGo = -25%; Cruzain noTriton = /
Cc1ccc(Cc2cnc(NC(=O)/C(C#N)=C/c3ccc(-c4cccc([N+](=O)[O-])c4)o3)s2)cc1 across the screens: LASV entry inh = ?; NS1 function inh = 14%; RE007 growth inh = 15%; SARS PLpro yeast = -3%; Marburg entry inh = 1%[46.1 µM]; Cruzain inh Det = 0.8%; 2A StopGo = -6%; Cruzain noTriton = 3.2µM*

An excerpt from above with just NS1 function inh, LASV entry inh and 2A StopGo:
cpd | SMILES | NS1 function inh | LASV entry inh | 2A StopGo
12 | CCCn1nnc(NC(=O)/C=C/c2ccco2)n1 | -2% | 17% | 0%
13 | CC(=O)Nc1cc(-c2nc3cc(Cl)ccc3o2)ccc1C | / | 22%[46.1 µM] | 61%[activator]

Going on with the list.
item	Compound	LASV entry inh	NS1 function inh	RE007 growth inh	SARS PLpro yeast	Marburg entry inh	Cruzain inh Det	2A StopGo	Cruzain noTriton
17	N/C(CN1CCCC1=O)=N\OC(=O)c1ccc(Cl)cc1	?	25%	6%	2%	1%	1.2%	15%	-11%
18	CCN(CC)CCNC(=O)c1ccc(Sc2ccc(Cl)cc2)c(NC(C)=O)c1	-23%	/	-2%	0%	?	/	-14%	/
19	O=C(CSc1nccn1Cc1ccco1)Nc1cc(C(F)(F)F)ccc1Cl	-9%[46.1 µM]	/	/	/	/	-7.2%	7%	-8%
20	O=C(Cc1ccc([N+](=O)[O-])cc1)c1c(O)cc(O)cc1O	/	16%	3%	0%	/	/	15%	/
21	COc1ccc(O)c(/C=N/N=C/c2cccc([N+](=O)[O-])c2)c1	/	-14%	-1%	0%	/	/	0%	/
22	Cc1ccc(C(=O)ONc2ccc(N=O)cc2)cc1	7%	2%	5.6µM*	-12%	23%	3.2%	?	-27%
23	COc1cccc2c1Oc1ncccc1N(C(=O)CCC(=O)NC(C)C)C2	-3%[46.1 µM]	/	/	/	/	-0.2%	-12%	-9%
24	COC(=O)c1ccc(C(=O)OC)c(NC(=S)N2CCN(c3ccccn3)CC2)c1	3%[46.1 µM]	-11%	-3%	-3%	-1%[46.1 µM]	/	8%	/

Entries by screen from the list.
RE007 growth inh, nos. 17–24, in order: 6%, -2%, /, 3%, -1%, 5.6µM*, /, -3%

Next results follow:
item	Compound	LASV entry inh	NS1 function inh	RE007 growth inh	SARS PLpro yeast	Marburg entry inh	Cruzain inh Det	2A StopGo	Cruzain noTriton
25	CCOc1ccc(C(c2nnnn2Cc2ccccc2)N2CCN(C(=O)c3ccco3)CC2)cc1 (stereo not drawn)	?	-3%	-16%	/	-25%&-25%	/	-17%	/
26	O=C(CS(=O)(=O)c1cccc2nsnc12)NCc1ccc(Cl)cc1	?	/	/	/	/	2.2%	-16%	-8%
27	CC(C)C[C@H](NC(=O)c1[nH]cnc1C(=O)Nc1ccccc1)C(=O)OC(C)(C)C	/	-2%	-8%	-11%	/	/	0%	/
28	COc1ccc(/C=C/C(=O)c2ccccc2O)cc1	2%	-67%	-19%	3%	/	-7.3%	5%	-2%
29	CCOC(=O)N(c1ccccc1)P1(=S)OCCO1	12%	-6%	-8%	2%	23%	1.1%	-4%	-1%
30	CCc1ccccc1NC(=O)c1cnn(-c2ccc(F)cc2)c1C1CCNCC1	?	/	/	/	/	-1.8%	-8%	-6%
31	CCCCC(C)(O)C/C=C/[C@H]1[C@H](O)CC(=O)[C@@H]1CCCCCCC(=O)OC (stereo partly drawn)	?	10%	/	12%	?	-2.7%&-3.6%	/	?
32	Cc1ccc(C(C)NC(=O)/C(C#N)=C\c2c(C)[nH]c3ccccc23)cc1 (stereo not drawn)	-11%	-62%	-7%	-21%	?	-7.3%	-10%	3%
33	COc1ccc(OC)c(-c2cc(C(=O)NCCc3ccccc3)c3c(-c4ccc(C)cc4)[nH]nc3n2)c1	6%[46.1 µM]	/	/	/	/	-6.4%	1%	10%
34	CC(=O)Nc1ccc(NC(=O)c2c([N+](=O)[O-])c(C(C)(C)C)nn2C)cc1	-3%	5%	18%	-1%	?	/	-27%	/
35	Cc1ccc(S(=O)(=O)NCC(=O)OC(C)C(=O)NC2CCCCC2C)cc1C (stereo not drawn)	-20%	/	-4%	4%	-3%	/	46%[activator]	/
